Bioassay records: PubChem, Center for Chemical Genomics, University of Michigan
CDC25B CDK2 inh – human CDC25B-CDK2/CyclinA binding inhibition | HTRF CDC25B-CDK2/CyclinA binding, anti-His/anti-Flag; active compounds read high | z-score (no concentration beside the values) | hit rate 0.72% among 94,000;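 also: score is relative to mean and SD of negative controls; strong numbers were not always called active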
TAR Tat displ – HIV-1 TAR-Tat binding disruption. HIV-1 TAR RNA, Tat peptide displacement FRET; active compounds read high. z-score (no concentration beside the values). hit rate 0.6% among 100,000. AID 1259389;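 also: score is relative to mean and SD of negative controls; some compounds called inactive have numbers as strong as hits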
* hit, by the source's call; / = not tested or not shown.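 The calls were made as follows: active = z-score from 3 up in half or more of its runs; inactive = the rest.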 Outcome played no part in choosing rows; any-hit rate near 0.87%.

compound	CDC25B CDK2 inh	TAR Tat displ
CCC(=O)N1CCc2cc(S(=O)(=O)NC(C(=O)Nc3cc(C)ccn3)C(C)C)ccc21 (configuration not stated)	-2.2	/
CNC(=O)c1c(NC(=O)c2ccc(S(=O)(=O)N3CCc4ccccc43)cc2)sc2c1CCC2	/	-0.3
Nc1c(-c2ccccc2)[nH]c2ccccc12	/	0.51
O=C(CN1CCN(c2ccccc2)CC1)N1CCN(c2ccccc2)CC1	-0.39	/
Cc1cc(=O)n2nc(N3CCCC(C(=O)NCCCN4CCCC(C)C4)C3)sc2n1 (configuration not stated)	-0.84	-0.39
CC1=C(c2cccc(Cl)c2)S(=O)(=O)N=C1Nc1ccc2c(c1)OCCO2	-4.1	1.3
CCCSc1nc(N)c2c3c(sc2n1)COC(C(C)C)C3 (configuration not stated)	-8.3	/
Cc1ccc(CCC(=O)Nc2ccc(Br)cc2)o1	0.13	-0.34
Cc1nn(-c2ccccc2)c(-n2cccc2)c1CNC(=O)Nc1cccc(Br)c1	/	-1.1
Cc1ccc(C)c(Cn2c(C)c(CNC3CCCC3)c(C(=O)O)c2C)c1	0.49	-0.14
Cc1csc(NC(=O)c2nc3ccccc3nc2Cl)n1	-0.12	-0.48
O=C(NCCO)C(=O)NCc1ccccn1	-0.01	1.2
Clc1ccc(OCc2cn3cccnc3n2)c2ncccc12	-0.13	/
O=C(c1ccc(Cn2c(SCc3ccc(F)cc3)nc3ccncc32)cc1)N1CCOCC1	-2.2	0.43
O=C(Nc1ccc2nc(SCc3cc(=O)n4nc(C5CC5)sc4n3)sc2c1)c1cccs1	/	1.3
COc1nc(C)ccc1-c1noc(-c2cccnc2)n1	-2.1	-1.7
COc1ccc(C2CC(=O)Nc3c(-c4ccc(Cl)cc4)csc32)c(OC)c1 (configuration not stated)	/	3.2
O=C1NCN(c2ccccc2)C12CCN(CCCC(c1ccc(F)cc1)c1ccc(F)cc1)CC2	-2	2.7
CCOc1ccc(C2CC(c3ccc(F)cc3)Nc3nc(N)nn32)cc1 (configuration not stated)	0.32	1.2
O=C(O)CN(CCN(CC(=O)O)Cc1ccccc1O)Cc1ccccc1O	/	2.2
CCS(=O)(=O)c1ccc(N2CCC(NC3CC(=O)N(c4ccc(F)cc4)C3=O)CC2)cc1 (configuration not stated)	-1.1	0.2
O=c1c2c([nH]n1-c1ccccc1)CCSC2	-1.4	/
Cc1onc(-c2ccccc2)c1C(=O)NC(C)CCCC(C)C (configuration not stated)	-2.9	/
CC(=O)N1CCc2cc(C(=O)CN(C)C)ccc21	-0.64	0.71

As entered above:
O=c1c2c([nH]n1-c1ccccc1)CCSC2 – CDC25B CDK2 inh: -1.4
Cc1onc(-c2ccccc2)c1C(=O)NC(C)CCCC(C)C (configuration not stated) – CDC25B CDK2 inh: -2.9

(list continues)
compound	CDC25B CDK2 inh	TAR Tat displ
CC1CCC(NS(=O)(=O)c2ccc3c(c2)n(C)c(=O)c(=O)n3C)CC1 (configuration not stated)	-2.5	/
CCCN1CCN(S(=O)(=O)c2cc(OCC)c(-n3cnnn3)cc2OCC)CC1	-1.9	-0.53
Cc1ccc(C2CC(C(F)(F)F)n3ncc(C(=O)NCc4cn(C)nc4C)c3N2)cc1 (configuration not stated)	-1.5	0.07
CN1C(=O)NC(c2ccc(O)cc2)C(C(=O)c2cccs2)C1(O)C(F)(F)F (configuration not stated)	-2.3	/
COCCn1c(CCC(=O)Nc2ccc3c(c2)OCCO3)nc2cccnc21	-0.04	0.55
CC(C)(C)OC(=O)NCCNC(=S)NCc1ccccc1	-0.84	/
CCCCc1nc(N2CCC(C)CC2)c(C#N)c2c1COC(C)(C)C2	0.59	0.57
C=CCN1C(=O)C(O)(CC(=O)c2ccc(C(C)C)cc2)c2ccccc21 (configuration not stated)	2.8	0.32
CN1CCc2c(sc3c2C(=O)NC(c2cccc(OC(=O)c4cccs4)c2)N3)C1 (configuration not stated)	0.75	-3.5
Cc1c2c(c(C)n1C)C(C(=O)NC1CCC(C)CC1)N(c1cccc(F)c1)C2=O (configuration not stated)	/	2.2
Cc1c(C)n(CCCN2CCOCC2)c2ncn3nc(-c4ccc(C(C)(C)C)cc4)nc3c12	-2.6	0.55
Cc1nc2nc(NCc3cccs3)[nH]n2c(=O)c1CCC(=O)N1CCOCC1	-1.4	-0.39
Cc1ccc(C(CNC(=O)c2cc(=O)c3ccccc3o2)N2CCC(C)CC2)o1 (configuration not stated)	-1.3	0.16
Cc1c(NC(=O)C2=Cc3cc(Br)ccc3OC2)c(=O)n(-c2ccccc2)n1C	/	0.08
Cn1nnc2c(NCc3ccccc3Cl)ncnc21	/	2.3
CCc1nnc2c(NCC3CCCO3)nc3ccccc3n12 (configuration not stated)	/	-0.22
CCC(C)N(Cc1cn(CC)c2ccccc12)C(=O)Nc1ccccc1 (configuration not stated)	-0.74	/
COc1ccc(CCN2C(=O)c3[nH]nc(-c4ccccc4O)c3C2c2cccc(OC)c2)cc1 (configuration not stated)	-0.98	1.3
N#Cc1c(=N)nc2oc3ccccc3c3cc(-c4ccccc4)[nH]c1c23	-2	-3.1
O=C(O)CCS(=O)(=O)c1ncn[nH]1	/	2.2
O=S(=O)(Oc1cc(Cl)cc(Cl)c1)c1ccc(-c2ccccn2)s1	-1.7	/
CCN1CCN(c2ncc(C(=O)NCc3ccc(C)o3)c(C)n2)CC1	/	1.4
CC(=O)O[C@@H]1CC2C(C)(C)C(=O)CC[C@]2(C)C2CC[C@]3(C)C(=CC(=O)O[C@H]3c3ccoc3)[C@@]21C (some centres not stated)	/	-0.08
CC1CCN(CCNC(=O)C2CCCN(c3ncnc4c3nc3n4CCCCC3)C2)CC1 (configuration not stated)	/	-1.1
CCNS(=O)(=O)c1ccc(-c2oc3cc(S(=O)(=O)NCC)ccc3c2Cl)cc1	-1.8	/
O=S(=O)(O)Sc1cc(O)ccc1O	-5.9	/
COC(=O)c1ccc(OC)c(CN2C=NS(=O)(=O)c3ccccc32)c1	/	-0.15
O=C1N(Cc2ccc(Br)cc2F)c2ccccc2S(=O)(=O)N1c1ccc(F)cc1	/	0.15
Nc1ccc(Cl)c(-c2nc3cc(Cl)ccc3o2)c1	0.9	-2.6
O=C1c2oc3ccc(F)cc3c(=O)c2C(c2ccc(O)cc2)N1CCCN1CCOCC1 (configuration not stated)	-0.08	0.27
Cc1cc(C)c(NC(=O)Cn2nc3c(cc2=O)CC(C)CC3)c(C)c1 (configuration not stated)	/	1.4
COc1ccc(-c2n[nH]c3c2C(c2ccc(F)cc2)NC3=O)cc1 (configuration not stated)	/	2.5
O=C(NNC(=O)c1snnc1-c1ccccc1)c1ccco1	-1.5	/
CCOc1ccccc1C(c1c(C)[nH][nH]c1=O)c1c(C)[nH][nH]c1=O	-0.91	0.14
O=C1C2C3c4ccccc4C(CO)(c4ccccc43)C2C(=O)N1c1cccc2ccccc12 (configuration not stated)	-2.4	/
Oc1cccnc1I	-1	/

Some of the entries so far, with two lines to a compound.
Results follow in this order: CDC25B CDK2 inh	TAR Tat displ
> Nc1ccc(Cl)c(-c2nc3cc(Cl)ccc3o2)c1
  0.9	-2.6
> O=C1c2oc3ccc(F)cc3c(=O)c2C(c2ccc(O)cc2)N1CCCN1CCOCC1 (configuration not stated)
  -0.08	0.27
> Cc1cc(C)c(NC(=O)Cn2nc3c(cc2=O)CC(C)CC3)c(C)c1 (configuration not stated)
  /	1.4
> COc1ccc(-c2n[nH]c3c2C(c2ccc(F)cc2)NC3=O)cc1 (configuration not stated)
  /	2.5
> O=C(NNC(=O)c1snnc1-c1ccccc1)c1ccco1
  -1.5	/
> CCOc1ccccc1C(c1c(C)[nH][nH]c1=O)c1c(C)[nH][nH]c1=O
  -0.91	0.14
> O=C1C2C3c4ccccc4C(CO)(c4ccccc43)C2C(=O)N1c1cccc2ccccc12 (configuration not stated)
  -2.4	/

(continued)
compound	CDC25B CDK2 inh	TAR Tat displ
C=CCNc1cc(-c2ccccc2)nc2nncn12	-0.22	0.85
CCOc1ccc(NC2=NS(=O)(=O)C(c3ccc(C)cc3)=C2C)cc1	-1.4	-0.04
COCCNS(=O)(=O)c1cc(Br)cc2c1N(C(C)=O)CC2	-0.17	/
CC1CCc2c(sc3nnn(CC(=O)N4CCCc5ccccc54)c(=O)c23)C1 (configuration not stated)	1.6	1.1
COc1ccc(-c2c(NCc3ccco3)c(=O)c2=O)cc1	/	2.4
CN(CC(=O)Nc1cccnc1)S(=O)(=O)c1ccc2[nH]c3c(c2c1)CCCC3	/	1.1
CCCCN(C)C(=O)CCCn1nc(C)n2c(cc3sccc32)c1=O	-0.58	-0.58
CCOC(=O)c1cc(NC(=O)Nc2ccc(Br)cc2)c(C)nc1C	-1.6	2.3
CCCCN1C(SCC)=NS(=O)(=O)c2ccccc21	/	1.1
CCc1ccccc1NC(=O)C1CC2CSCN2C12C(=O)Nc1ccccc12 (configuration not stated)	/	-0.91
COCCNC(=O)c1cn(C)c2ccc(S(=O)(=O)N3CCOCC3)cc2c1=O	-0.62	1.9
O=C(NCCN(Cc1ccco1)C1CCCC1)c1cc2c(s1)-c1ccccc1OC2	0.37	0.03
CCOc1ccc2c(c1)C(=C1SC(C(=O)OC)=C(C(=O)OC)S1)C(=S)C(C)(C)N2	-3.7	1.5
COc1cccc(N2CC(=O)Nc3c(sc4nc(C)cc(C)c34)C2=O)c1	-1.6	/
COc1ccc2ccccc2c1C1CC(=O)N2CN(c3ccccc3)CSC2=C1C#N (configuration not stated)	4.8*	-1.1
CCNc1nc(NC(C)C)c2cnn(C)c2n1	/	1.1
CCOC(=O)c1sc(-c2csc(C)n2)nc1C	1.9	/
CCOc1ccc(C2NC(C(=O)O)CS2)cc1 (configuration not stated)	-1.1	1.4
CC(C)CCNc1nc(N)c([N+](=O)[O-])c(NC2CCCCC2)n1	/	0.65
Clc1cccc(CNc2ncnc3onc(-c4cccc(Cl)c4)c23)c1	/	0.86
CCOc1ccc(C2C(C(=O)OCc3ccccc3)=C(C)N=C3SCCC(=O)N32)cc1OCC (configuration not stated)	-0.72	1
Cc1ccc(C2c3c(oc4ccc(C)cc4c3=O)C(=O)N2c2ccccn2)cc1 (configuration not stated)	-1.3	-1
Cc1ccc(-c2noc(-c3ccc(F)c(F)c3)n2)s1	/	0.12
O=C1OC(c2ccc(Cl)cc2)/C(=C(/O)c2ccccc2)C1=O (configuration not stated)	-0.6	-0.98
Cc1oc(C(C)(C)C)cc1C(=O)Nc1ccc2c(c1)OCO2	0.32	/
O=C1CC(N2CCSCC2)C(=O)N1c1cccc(Cl)c1 (configuration not stated)	0.49	0.03
CC(C)c1ccc(S(=O)(=O)N2CCCC(c3nc(-c4ccncc4)no3)C2)cc1 (configuration not stated)	/	0.16
CC12CS(=O)(=O)CC1SC(=S)N2Cc1ccccc1 (configuration not stated)	-0.08	/
O=C(C1CCN(c2ccc(-c3cccs3)nn2)CC1)N1CCC(N2CCCCC2)CC1	/	1.5
CC(NC(=O)Cn1ncn2c(cc3cc(F)ccc32)c1=O)c1ccc2c(c1)OCCO2 (configuration not stated)	2.3	-0.26
COc1ccc(CCNc2c(-c3ccc4c(c3)CCCC4)c(=O)c2=O)cc1OC	/	-0.33
Cc1c(NC(=O)Nc2cc(F)ccc2F)c(=O)n(-c2ccccc2)n1C	-1.4	0.02
CSc1ncc2c(=O)n(CC(=O)Nc3nccs3)cnc2n1	/	1.3
Cn1nnnc1SCCNCc1cccc(Br)c1	-1.1	1.7
CN(C1CCCCC1)S(=O)(=O)c1ccc2[nH]c(=O)cc(C(=O)NCc3ccccc3)c2c1	-1.7	/
CCc1ccc2occ(CC(=O)N(Cc3ccc(C(C)C)cc3)C3CCS(=O)(=O)C3)c2c1 (configuration not stated)	-2.9	0.62
CCN1CCN(C(=O)CN2C(=O)CSc3ccc(S(=O)(=O)N4CCOCC4)cc32)CC1	-2.1	/
COc1ccc(OC)c(NS(=O)(=O)c2ccc(CN3C(=O)c4cccnc4C3=O)s2)c1	/	-0.97
CCN1CCN(CCCNC(=O)c2ccc3c(=O)n4c(nc3c2)CCCCC4)CC1	-0.12	/
CCN(CC)c1nc(NCc2ccc(Cl)cc2)c2cnn(C)c2n1	/	0.74
CSc1ccccc1NC(=O)c1sc2ccccc2c1Cl	0.03	1.7
CC(=O)NC1=NN(C(C)=O)C(c2ccc([N+](=O)[O-])o2)S1 (configuration not stated)	-1.1	1.8
CCOC(=O)c1sc2ncnc(Oc3ccc(OCC)cc3)c2c1C	/	-0.28
CN(C(=O)c1noc2c1CSc1ccccc1-2)c1ccc(F)cc1	-1	0.85
Cc1ccc(S(=O)(=O)N2CCN(C(=O)CSc3nc(C)cc(=O)[nH]3)C2)cc1	0.68	0.38
O=C(Nc1ccc2oc(-c3c(F)c(F)c(F)c(F)c3F)nc2c1)c1cccc([N+](=O)[O-])c1	-3.6	/
CCOC(=O)c1noc2ncnc(N3CCCCC3C)c12 (configuration not stated)	/	0.98
COc1ccc(S(=O)(=O)N2CCC(n3c(=O)[nH]c4ccccc43)CC2)cc1OC	-1.5	0.45
Oc1ccccc1-c1nc2ccccn2c1Nc1ccc2c(c1)OCCO2	-0.86	0.5
CCC(=O)N1CCc2cc(Br)cc(S(=O)(=O)CCC(=O)NCCC(C)C)c21	1.2	/
CC(C)COC(=O)C1C2C=CC3(CN(Cc4cccs4)C(=O)C13)O2 (configuration not stated)	-0.42	0.08
O=C(Cn1cc(C(=O)C2CCCCC2)c2ccccc21)Nc1ccccc1	-0.79	2
